# Screening results from PubChem.
# eIF4H inh – inhibitors of RNA binding by human eIF4H; eIF4H fluorescence polarization binding assay; inhibition, % at 35 µM; hit rate 0.94% among 290,000;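 active = 50% or more with normal probe brightness, or confirmed in later tests; inconclusive = above 50% with abnormal brightness, or retests that disagree; inactive = below 50% or failed in later tests; about a fifth of its hits are not listed in these tables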;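 also: calls also rest on retests at 20 µM and on dose response follow-up; 0% = protein and probe with vehicle and 100% = probe without protein; strong numbers were not always called active; many hits fall short of the cut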
# UUG fidelity – modulators of start codon recognition fidelity in yeast; S. cerevisiae UUG-firefly luciferase reporter, luminescence/redox ratio; activity score, % at 18.7 µM; hit rate 0.13% among 350,000;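 active = replicate mean at a twofold rise or more, about +100% in these data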;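 also: firefly luciferase made from a UUG start codon reports start codon fidelity; reporter light over untreated wells divided by growth signal over untreated wells; some hits fall short of that in this replicate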
# CSC inhib – cancer stem cell inhibition. cancer stem cell-like cells viability, luminescence. inhibition, % at 7.5 µM. AID 2717. hit rate 1.1% among 300,000;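 active = mean at 75% or more and at least half the replicates too; inconclusive = mean and replicates disagree; tested in HMLE shEcad cells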;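 also: 0% = median of negative and 100% = median of positive control wells; the first replicate is given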
# Rce1 inhib – yeast Ras-converting enzyme inhibition; Q03530; calls only; hit rate 0.27% among 290,000; yeast membranes, quenched prenylated peptide cleavage fluorescence;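 active = fall in fluorescence gain of 50% or more versus controls, with final raw signal at or below 3038400; inconclusive = same 50% fall but final raw signal above 3038400; inactive = fall in fluorescence gain under 50%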;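 also: plate controls were neutral control wells for no effect and wells lacking membranes for full effect; tested at 10 µM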
# Target sequence (Q03530 whole entry, looked up): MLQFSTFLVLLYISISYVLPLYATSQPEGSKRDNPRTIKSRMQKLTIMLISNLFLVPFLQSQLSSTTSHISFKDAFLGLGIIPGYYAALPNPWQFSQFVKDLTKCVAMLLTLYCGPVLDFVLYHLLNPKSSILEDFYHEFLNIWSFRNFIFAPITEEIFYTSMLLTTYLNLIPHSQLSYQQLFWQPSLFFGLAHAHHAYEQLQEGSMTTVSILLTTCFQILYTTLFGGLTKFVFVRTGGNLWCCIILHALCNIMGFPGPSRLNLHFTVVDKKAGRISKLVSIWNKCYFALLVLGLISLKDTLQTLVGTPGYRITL
# PABP polyA inh – PABP-poly(A) binding inhibition | P11940 | PABP-poly(A) RNA binding, fluorescence polarization | inhibition, % at 35 µM | hit rate 1% among 290,000;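 active = 50% or more with normal probe brightness, or confirmed in later tests; inconclusive = above 50% with abnormal brightness, or retests that disagree; inactive = below 50% or failed in later tests; about a fifth of its hits are not listed in these tables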;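 also: calls also rest on retests at 20 µM and on dose response follow-up; controls were probe without protein and protein plus probe with vehicle; some compounds called inactive have numbers as strong as hits; many hits fall short of the cut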
# MT1-MMP act inh – inhibitors of human MT1-MMP activation; hit rate 0.061% among 360,000; GFP/RFP ratio change, % at 20 µM; AID 651647; HT1080 RFP-PRO-GFP cells, GFP/RFP ratio fluorescence, overnight; percent of plate control window, DMSO zero;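 active = GFP/RFP ratio change of at least 30% with cell ATP level not reduced by more than half and red fluorescence within 50% of control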; also: strong numbers were not always called active
#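 Read-out: GFP/RFP fluorescence ratio; Test system: RFP-PRO-GFP reporter HT1080 cells; Compound dosing: single-point 20 µM compound, 1% DMSO; Times: overnight compound exposure at 37 °C.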
# HIV Env fusion – HIV envelope-mediated fusion inhibition | inhibition, % at 12.3 µM | HeLa-JRFL Env/CEM21 cell fusion, luciferase | hit rate 1.1% among 360,000;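 active = mean replicate inhibition score of at least 50 and every replicate individually at or above 50; inconclusive = only one of the two criteria met; inactive = mean below 50 and not all replicates reaching 50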;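 also: 0% = plate neutral controls and 100% = maraviroc near 300 nM; one replicate is shown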
# eIF4H inh retest – recorded beside eIF4H inh, whose call it bears; inhibition, %; compound at 20 µM; confirmation average;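 mean of two retest wells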
# PABP polyA inh retest – also measured in PABP polyA inh; calls as there; inhibition, %; compound at 20 µM; confirmation repeats;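 mean of two retest wells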
# MT1-MMP act inh RFP – further read-out of MT1-MMP act inh, marked with its call; RFP signal change, %; measured here: RFP expression control read;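 0 = vehicle wells; hits needed this value within 50% of zero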
# Numbers without * were called inactive; i = inactive; ? = inconclusive; . = not tested or not shown; & = joins results of further samples. Random draw from the library. Share with any hit: about 2.9%.
SMILES,eIF4H inh,UUG fidelity,CSC inhib,Rce1 inhib,PABP polyA inh,MT1-MMP act inh,MT1-MMP act inh RFP,HIV Env fusion,others
CCOc1ccc(-c2nnc3sc(COc4ccccc4)nn23)cc1,-3,-16,-6,i,3,0,3,-30,
Cc1cc(Cl)ccc1OCC(=O)N1CCCCC1,-2,-28,22,i,2,1,-2,.,
CN(Cc1cccs1)S(=O)(=O)c1ccc(Cl)cc1F,.,-2,.,.,.,1,-1,7,
CC(CNC(=O)CC[C@H]1O[C@@H](n2cnc3c(NC(=O)c4ccccc4)ncnc32)[C@H](O)[C@@H]1O)c1ccccc1 (some centres undefined),.,-18,.,.,.,2,4,-7,
COC(=O)c1c(C)oc(C)c1S(=O)(=O)N(Cc1ccccc1)C(C)C,-9,-10,4,i,-4,1,-1,28,
C=CCn1c(SCC(N)=O)nc2nc3c(cc2c1=O)COC(C)(C)C3,-2,-2,-1,i,-4,-1,4,45,
Cc1ccc2c(c1)N(C(=O)CCC(=O)NCCN1CCOCC1)CC(C)O2 (centres undefined),-15,14,.,i,7,-6,4,-1,
Cc1ccc2nsnc2c1NC(=O)COc1ccccc1F,-1,.,-15,i,-2,-2,3,2,
Cc1ccc(CN2CCN(C/C(Cl)=C/c3ccccc3)CC2CCO)o1 (centres undefined),5,.,24,i,7,-6,0,-6,
CC(C)(C)OC(=O)N1CCC(C(=O)O)CC1,0,-6,-4,i,-1,-3,1,31,
CC(Sc1nc(N)cc(=O)[nH]1)C(=O)Nc1nc2c(s1)CCCC2 (centres undefined),1,-9,.,i,0,3,2,-7,
O=C(Nc1ccc2c(c1)OCO2)c1cc(C2CCCN(C(=O)CCCc3ccccc3)C2)on1 (centres undefined),.,10,.,.,.,-3,-4,-3,
CCOP(=O)(OCC)C(O)c1cc(OC)c(OC)c(OC)c1 (centres undefined),-10,.,-10,i,-22,1,1,23,
O=c1oc2ccccc2n1CCn1c2ccccc2c2nc3ccccc3nc21,12,-13,12,i,11,-6,-7,.,
C=CCN(CC=C)C(=O)Nc1ccc2nc(C)sc2c1,-1,.,-5,i,-2,1,-2,-22,
Cc1ccc(C(=O)N/C(=C\c2cn(S(=O)(=O)N(C)C)c3ccccc23)C(=O)NCCCN2CCOCC2)cc1,-6,9,-6,i,-1,-4,1,-6,
O=C1CCCc2c1nc(-c1ccccc1)n2O,2,.,12,i,-6,3,2,.,
O=c1[nH]nc(N/N=C/c2ccccc2OC(F)F)c(=O)[nH]1,1,2,-11,i,1,13,4,-6,
Cc1ccc(-n2ncc3c(=O)n(CC(=O)N(C)C)cnc32)cc1C,-10,-8,-3,i,54,2,1,1,eIF4H inh retest=7;PABP polyA inh retest=9
CN(C(=O)CCN1C(=O)c2ccccc2C1=O)c1ccccc1,-2,-11,-10,i,-10,-2,0,4,
COc1ccc(-c2nnc3ccc(SCC(N)=O)nn23)cc1OC,0,-20,3,i,-2,-1,-5,-46,
CCOC(=O)c1cc(C#N)c(SCC(=O)O)[nH]c1=O,21,.,2,i,-2,9,4,?,
CC(C)CCNC(=O)NC(=O)CSc1nnc(-c2ccccc2Br)o1,-1,-18,3,i,3,1,3,.,
O=C(Nc1ccc(Nc2ccccc2)cc1)c1ccco1,8,610*,9,i,-4,8,6,-93,
COc1ccc(-c2noc(=O)n2Cc2ccccc2Cl)cc1,-6,-10,-3,i,5,6,8,-14,
CCCCC(=O)Nc1ccc(NC(=O)c2cnccn2)cn1,7,.,4,i,3,2,3,4,
Cn1c(CN2CCN(C(=O)c3ccccc3)CC2)nc2cc([N+](=O)[O-])ccc21,1,.,-9,i,2,-3,-2,8,
N#Cc1c(/N=C\c2ccc(O)c([N+](=O)[O-])c2)sc2c1CCCC2,8,.,-12,i,26,-2,-4,-5,
CNc1nc(-c2ccccc2)[n+](-c2ccc(C)cc2)s1,-18,.,4,i,-20,4,4,.,
COc1ccc(-c2nc(CCl)cs2)cc1,-4,.,3,i,-2,2,0,-24,
CN(C)C=NC(=O)c1cc(C(=O)c2ccc(Cl)cc2)c[nH]1,5,.,7,i,-1,-4,-1,26,
CCn1cc(/C=N/O)c(C)n1,12,-20,13,i,-5,-1,2,-23,
O=C(Nc1ccncc1)Nc1cccc(F)c1,-3,-7,-5,i,0,-4,-1,-2,
Cc1cccc(N2CC(C(=O)Nc3nnc(SCC(=O)Nc4nccs4)s3)CC2=O)c1 (centres undefined),2,.,-9,i,-10,-5,-1,-1,
CCOc1c(C(=O)CC)cc2c(C)cc(=O)oc2c1C,-4,-47,-3,i,12,5,4,-381,
S=C(NCCc1ccccn1)Nc1ccc(Cl)cc1,9,.,-4,i,16,4,2,-25,
O=C(OCC(=O)N1CCc2ccccc2C1)c1c(F)cccc1Cl,.,-16,-11,.,.,-1,-1,.,
CCc1nc(NC(=O)Cc2csc(C)n2)sc1C(=O)OC,-14,-8,-1,i,-7,0,-2,3,
CCN(CC)CCN(C(=O)c1ccc([N+](=O)[O-])cc1)c1nc2c(OC)cccc2s1,2,.,-13,i,8,4,4,15,
CN(C)c1ccc(N=Nc2ccccc2C(=O)OCC(=O)N(C)C2CCCCC2)cc1,5,.,20,i,3,-1,1,14,
Cc1nc(SCC(=O)CC(=O)OC(C)C)c(C#N)c(C)c1C,-3,7,-11,i,0,9,2,-14,
CC1CCC(NCC(=O)Nc2cccc(S(N)(=O)=O)c2)CC1 (centres undefined),47,-9,-4,i,6,2,3,-5,
CS(=O)(=O)NCCNC(=O)c1cc(OCC(F)(F)F)ccc1OCC(F)(F)F,1,.,-13,i,53,-2,2,14,eIF4H inh retest=-5;PABP polyA inh retest=-1
O=C(CNC(=O)c1ccc(Cl)cc1)c1ccccc1,.,.,-3,i,.,0,4,-62,
Cc1ccc2[nH]c3c(=O)n(CCCN4CCN(C)CC4)cnc3c2c1,-8,-29,16,i,-6,7,3,-18,
Cc1nc(NC(=O)c2ccco2)sc1-c1csc(Nc2ccc(Cl)cc2)n1,-12,-19,91*,i,-2,1,-1,-7,
COc1ccccc1/C=C/C(=O)NCC(=O)N/N=C/c1ccc(C)o1,-6,.,-8,i,2,-5,-2,-13,
COc1ccccc1C(=O)NC(=O)CSc1nncn1C,.,-26,-9,i,.,3,0,0,
CCc1ccc(NC(=O)COC(=O)/C=C/c2ccco2)cc1,.,-22,11,.,.,7,6,-5,
Cc1c(C(=O)NCc2cccc(C(F)(F)F)c2)sc(=O)n1Cc1cccc(F)c1,.,7,.,.,.,0,-8,20,
Cc1ccc(S(=O)(=O)N2CCN(C(=O)COC(=O)Cc3cccc(C(F)(F)F)c3)CC2)c(C)c1,.,.,.,i,.,3,4,22,
O=C(c1ccccc1F)N1CCN(c2cnn(-c3cccc(Cl)c3)c(=O)c2Cl)CC1,-1,-16,-4,.,8,3,-2,2,
CCn1ncc(/C=N\NC(=O)c2csc3ccccc23)c1C,2,-12,.,i,-10,-5,-7,-147,
CN(/N=C/c1ccc([N+](=O)[O-])o1)c1ccccc1,-3,.,-3,i,16,-4,0,-2,
Cc1ccc(-n2nc3c(N4CCC(C(=O)NCCc5ccccc5C)CC4)nnc(C)c3c2C)cc1,-2,-11,83*,i,-7,-5,-5,.,
O=S(=O)(Nc1ccc(Cc2ccncc2)cc1)c1cccs1,1,-21,10,i,8,7,-6,.,
CCOC(=O)c1sc2nc(CC(=O)OC)nc(NCc3ccc(F)cc3)c2c1C,-1,-24,2,i,-14,-8,-23,8,
CC(C)c1nnc(NC(=O)Cc2ccccc2[N+](=O)[O-])s1,8,-8,-2,i,4,0,4,-2,
O=C(Cc1ccc(Br)cc1)Nc1ccc2[nH]ncc2c1,11,-15,-1,i,-5,-4,-7,19,
O=C(NNS(=O)(=O)c1ccc(F)cc1)c1cccc(O)c1,-3,-4,-9,i,-3,2,6,2,

# Of the compounds above, these have a nitro group on carbon.
SMILES,eIF4H inh,UUG fidelity,CSC inhib,Rce1 inhib,PABP polyA inh,MT1-MMP act inh,MT1-MMP act inh RFP,HIV Env fusion,others
Cn1c(CN2CCN(C(=O)c3ccccc3)CC2)nc2cc([N+](=O)[O-])ccc21,1,.,-9,i,2,-3,-2,8,
N#Cc1c(/N=C\c2ccc(O)c([N+](=O)[O-])c2)sc2c1CCCC2,8,.,-12,i,26,-2,-4,-5,
CCN(CC)CCN(C(=O)c1ccc([N+](=O)[O-])cc1)c1nc2c(OC)cccc2s1,2,.,-13,i,8,4,4,15,
CN(/N=C/c1ccc([N+](=O)[O-])o1)c1ccccc1,-3,.,-3,i,16,-4,0,-2,
CC(C)c1nnc(NC(=O)Cc2ccccc2[N+](=O)[O-])s1,8,-8,-2,i,4,0,4,-2,

# (continued)
SMILES,eIF4H inh,UUG fidelity,CSC inhib,Rce1 inhib,PABP polyA inh,MT1-MMP act inh,MT1-MMP act inh RFP,HIV Env fusion,others
OCC[C@H]1C[C@H](O)[C@@H](O)[C@@]2(Cc3ccccc3CCO2)O1,.,-14,9,.,.,1,6,-3,
CCCCCn1c(=O)c(F)cn(Cc2ccc(OC)c([N+](=O)[O-])c2)c1=O,-3,-17,3,i,-2,1,1,-75,
CN(CC1CCN(CCc2cccc(C(F)(F)F)c2)CC1)C(=O)c1ccc(F)cc1F,12,-13,21,i,5,1,1,15,
Cc1cc(C(=O)N(C)C)sc1-c1ccccc1,-4,-20,-1,i,6,5,-1,.,
Cc1nc2ccc(NC(=O)Cc3ccc(Br)cc3)cc2s1,4,.,-1,i,3,6,1,-17,
COc1ccc2[nH]c(C(=O)N3CCNCC3)cc2c1OC,1,-1,.,i,-7,0,2,1,
C[C@@H]1CCCCO[C@@H](CN(C)C(=O)C2CCCCC2)[C@@H](C)CN([C@H](C)CO)C(=O)c2cc(NC(=O)NC3CCCCC3)ccc2O1,.,6&-32,.,.,.,-2,1,-34,
Cc1noc(C)c1-c1ccc(C(=O)NCc2ccc(Cl)cc2)c2occc12,.,6,.,.,.,12,0,i,
CC(=O)Oc1ccc(C(=O)[C@H]2[C@H]3C(=O)N(c4ccc(C)cc4)C(=O)[C@H]3[C@@H]3C=CC=NN32)cc1,6,-10,5,i,26,-14,3,.,
c1ccc(CSCCc2ccncc2)cc1,5,-9,.,i,11,1,-5,.,
CC1CCN(C(=O)c2nc[nH]c2C(=O)O[C@H](C)c2ccccc2)CC1,.,-17,-21,.,.,1,4,9,
O=C(c1ccc(F)cc1F)N1CCCC(c2nc(-c3ccc(F)cc3)no2)C1 (centres undefined),0,10,-5,i,-2,5,-10,29,
O=C(c1ccccc1-n1cccc1)N1N=C(C(F)F)CC1(O)C(F)F (centres undefined),0,.,5,i,2,-5,-2,8,
CC(C)C[C@H]1COCCS(=O)(=O)N1Cc1cccc(Cl)c1,.,-4,-13,i,.,1,-3,2,
CCc1nnc(NS(=O)(=O)c2ccc(NC(=O)c3cccc(Cl)c3)cc2)s1,6,.,-14,i,-9,0,3,2,
COC(=O)c1ccc(NC(=O)Nc2ccc(F)cc2)cc1,-3,-9,4,i,5,9,-4,.,
Cc1ccc(C2C3=C(CC(C)(C)CC3=O)N=C3c4ccccc4C(=O)C32)cc1 (centres undefined),-12,.,8,i,-7,-8,-21,.,
COC(=O)C/C=C/[C@@H](C)[C@@H](/C=N/OC[C@H]1O[C@H](c2ccccc2)C=C[C@@H]1Oc1ccc(OC)cc1)OC,2,.,-16,i,7,.,.,.,
CCOc1ccc(NC(=O)CN2C(=O)C3CCCN3C2=O)cc1 (centres undefined),1,-15,0,i,0,2,3,-8,
COc1ccc(NC(=O)NNC(=O)c2ccc(Cl)cc2Cl)cc1OC,-3,-14,6,i,-3,2,4,6,
